Source: PubChem BioAssay (Broad Institute)
YB-1 expr inh: inhibitors of YB-1 gene expression, primary screen, cell-based, fluorescence. U2OS, qRT-PCR YB-1 vs CDIP delta delta Cp, 16 h; active compounds read high; zero = DMSO, each unit about twofold. delta delta Cp (YB-1 minus CDIP) (test concentration not listed). 30,000 compounds, 0.37% hits. AID 434959, 2010;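 active = delta delta Cp rounded down to an integer at or above 3, about 3 SD of DMSO wells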;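 note: higher means less YB-1 transcript or more CDIP transcript relative to DMSO; stock transfer was 100 nL into about 100 µL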
Shh pathway inh: Hedgehog pathway signaling inhibitors, primary screen, luminescence, Shh-LIGHT2 cells, Gli-luciferase; Shh-LIGHT2 Gli-luciferase reporter, 30 h; inhibition, % (no concentration beside the values); 22,000 compounds, 2.1% hits;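 active = replicate mean of 65% or more; inconclusive = mean lower but half the replicates past it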;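 note: pathway switched on by Shh-conditioned medium diluted 1 in 25 in low serum; 100 nL library stock added to about 40 µL; 0% = median of neutral wells and 100% = positive control level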
MITF inh: inhibitors of MITF, primary screen, MITF inhibitor project, cell-based, luminescence; inhibition, % (no concentration beside the values); TRPM1 promoter luciferase, 24 h; AID 2240, 2010; 37,000 compounds, 0.28% hits;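 active = most replicates at 85% or more, or half of them and the mean; inconclusive = half reach 85% but not the mean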;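 note: human melanocyte line stably carrying TRPM1 promoter luciferase reporter; 0% = vehicle wells and 100% = a positive control; the first replicate is given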
PD-1 reversal: activators reversing PD-1 mediated T-cell inhibition, primary screen, luminescence, primary human CD4 T cells, PD-L1 beads; CellTiter-Glo 96 h; activation, % (test concentration not listed); 29,000 tested, under 10 active; AID 2316, 2010;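 active = replicate mean of 50% or more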;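 note: 0% = median vehicle wells and 100% = positive control; 100 nL library stock added to about 50 µL; numbers are from one replicate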
Active calls of the source: *. A portion of the library; count on the stated rates, not on these rows.

For C[C@@H]1CN([C@@H](C)CO)C(=O)Cc2cc(NS(=O)(=O)c3ccccc3)ccc2O[C@@H]1CN(C)S(=O)(=O)c1cn(C)cn1 the results were YB-1 expr inh 0.116, Shh pathway inh inconclusive, MITF inh 4.0 and PD-1 reversal 0.7.
`NCCNc1ccc([N+](=O)[O-])c(NCCO)c1` gave MITF inh 8.8 and PD-1 reversal 3.0.
`COc1ccc(NC(=O)N(C)C[C@@H]2Oc3ccc(NC(=O)Nc4ccc(F)cc4)cc3CC(=O)N([C@@H](C)CO)C[C@@H]2C)cc1` gave YB-1 expr inh -0.29, Shh pathway inh 43.1 and MITF inh -10.1.
`C[C@@H]1CN([C@@H](C)CO)C(=O)c2cc(NC(=O)CCC(F)(F)F)ccc2O[C@@H]1CN(C)S(=O)(=O)c1cn(C)cn1` gave YB-1 expr inh -0.182, Shh pathway inh -29.2, MITF inh -4.4 and PD-1 reversal 0.2.
Screening COc1ccc(S(=O)(=O)Nc2cccc3c2O[C@@H](CN(C)Cc2ccccc2)[C@@H](C)CN([C@H](C)CO)C3=O)cc1 returned YB-1 expr inh -0.593, Shh pathway inh 19.1, MITF inh 1.1 and PD-1 reversal -1.1.
For O=C(COc1cc(O)c2c(=O)c3ccccc3oc2c1)c1ccc(Cl)cc1 the results were MITF inh 32.3 and PD-1 reversal -8.2.
Screening COc1ccc(CCNC(=S)NCCc2ccccc2)cc1OC returned YB-1 expr inh -0.0434, Shh pathway inh 2.1, MITF inh 16.4 and PD-1 reversal 0.0.
`O=C(Nc1ccc(F)cc1)C(=S)NC1CCCCC1` gave YB-1 expr inh 0.229, Shh pathway inh -48.9, MITF inh -27.7 and PD-1 reversal 0.3.
For C[C@@H]1CN([C@@H](C)CO)C(=O)Cc2cc(NC(=O)Nc3ccc4c(c3)OCO4)ccc2O[C@@H]1CN(C)C(=O)Nc1ccc2c(c1)OCO2 the results were YB-1 expr inh -0.418 and MITF inh -11.1.
Cn1c(SCc2nc3ccccc3c(=O)[nH]2)nnc1-c1ccco1 was read as MITF inh -4.2 and PD-1 reversal -0.4.
Cc1ccc(S(=O)(=O)Nc2ccc3c(c2)C(=O)N([C@H](C)CO)C[C@H](C)[C@@H](CN(C)CC2CC2)OCCCC[C@@H](C)O3)cc1 was read as YB-1 expr inh 0.0565, Shh pathway inh -21.2 and MITF inh -6.9.
Screening COc1ccc(NC(=O)Nc2ccc3c(c2)CC(=O)N([C@@H](C)CO)C[C@H](C)[C@@H](CN(C)C(=O)Nc2ccc(C(F)(F)F)cc2)O3)cc1 returned YB-1 expr inh -0.408, Shh pathway inh -25.1, MITF inh 4.8 and PD-1 reversal -0.6.
Screening Cc1c(O)cc2c(c1O)C(=O)CC(c1ccc(O)cc1)O2 (stereo unspecified) returned YB-1 expr inh 0.302 and Shh pathway inh 17.7.
`Cc1ccc(S(=O)(=O)Nc2ccc3c(c2)C(=O)N([C@H](C)CO)C[C@@H](C)[C@@H](CN(C)CC2CCCCC2)O3)cc1` gave YB-1 expr inh -0.081, MITF inh 0.6 and PD-1 reversal 0.8.
Screening C[C@H](CO)N1C[C@H](C)[C@H](CN(C)S(=O)(=O)c2ccc(Cl)cc2)Oc2ccc(NC(=O)NC3CCCCC3)cc2C1=O returned YB-1 expr inh 0.023 and MITF inh -4.5.
For CC(NC(=O)COc1ccccc1C(C)(C)C)c1ccccc1 (stereo unspecified) the results were YB-1 expr inh 0.334, Shh pathway inh 34.7, MITF inh 13.0 and PD-1 reversal -0.3.
For Cc1ccc(S(=O)(=O)N(C)C[C@@H]2Oc3ccc(NC(=O)Nc4ccc(C(F)(F)F)cc4)cc3CC(=O)N([C@@H](C)CO)C[C@@H]2C)cc1 the results were YB-1 expr inh 0.0411, Shh pathway inh 43.2, MITF inh 45.7 and PD-1 reversal -6.8.
Screening Cc1noc(C)c1S(=O)(=O)Nc1ccc2c(c1)C(=O)N([C@@H](C)CO)C[C@H](C)[C@@H](CN(C)C(=O)NC1CCCCC1)O2 returned YB-1 expr inh -0.125, MITF inh -8.4 and PD-1 reversal 4.6.
For CC1(C)CC(=O)C2=C(C1)N(Cc1cccnc1)C(=O)C2(NC(=O)c1ccco1)C(F)(F)F (stereo unspecified) the results were MITF inh -17.1 and PD-1 reversal 1.1.
`C[C@@H]1CN([C@H](C)CO)C(=O)c2cc(NS(=O)(=O)c3cn(C)cn3)ccc2O[C@@H]1CN(C)CC1CCCCC1` gave YB-1 expr inh -0.212, MITF inh 3.0 and PD-1 reversal 1.0.
For C[C@@H]1CN([C@@H](C)CO)C(=O)c2cc(NC(=O)Cc3ccccc3)ccc2O[C@@H]1CN(C)S(C)(=O)=O the results were YB-1 expr inh -0.171, Shh pathway inh 3.3, MITF inh 2.0 and PD-1 reversal -0.2.
Cc1noc(C)c1NC(=O)N(C)C[C@@H]1Oc2ccc(NC(=O)CCN3CCOCC3)cc2C(=O)N([C@H](C)CO)C[C@@H]1C was read as YB-1 expr inh 0.399, Shh pathway inh 1.5, MITF inh -8.0 and PD-1 reversal 1.2.
CC1(CO)CC(O)CC2(C)C3=C(CCC12)C(=O)OC3 (stereo unspecified) was read as YB-1 expr inh -0.219, Shh pathway inh -4.4, MITF inh -23.8 and PD-1 reversal 0.9.
Screening COc1ccc(S(=O)(=O)Nc2ccc3c(c2)C(=O)N([C@H](C)CO)C[C@@H](C)[C@@H](CN(C)C(=O)Nc2ccc4c(c2)OCO4)O3)cc1 returned YB-1 expr inh 0.394, Shh pathway inh 28.6, MITF inh -2.9 and PD-1 reversal 1.1.
For C[C@@H]1CN([C@@H](C)CO)C(=O)c2cc(NC(=O)CCCN(C)C)ccc2O[C@@H]1CN(C)CC1CCCCC1 the results were YB-1 expr inh 0.0116, Shh pathway inh 5.1, MITF inh 4.9 and PD-1 reversal 0.4.
`C[C@H]1CN([C@@H](C)CO)C(=O)c2cc(NC(=O)CCC(F)(F)F)ccc2O[C@@H]1CN(C)C(=O)Nc1ccc(C(F)(F)F)cc1` gave YB-1 expr inh 0.11, MITF inh -3.1 and PD-1 reversal -0.8.
COc1ccccc1Nc1nc(N)nc(CSc2nnc(C)s2)n1 was read as MITF inh -56.9 and PD-1 reversal 1.3.
`C[C@H](CO)N1C[C@H](C)[C@@H](CN(C)C(=O)NC2CCCCC2)Oc2c(NC(=O)c3ccc(-c4nccs4)cc3)cccc2C1=O` gave YB-1 expr inh -0.882, Shh pathway inh -108.0, MITF inh -0.2 and PD-1 reversal -0.6.
`CC(Sc1nnc(-c2ccc(Br)cc2)n1-c1ccccc1)C(=O)O` (stereo unspecified) gave MITF inh -17.4 and PD-1 reversal -0.2.
`C[C@@H]1CCCCO[C@H](CN(C)C(=O)NC2CCCCC2)[C@@H](C)CN([C@H](C)CO)C(=O)c2cc(NC(=O)c3ccccc3)ccc2O1` gave YB-1 expr inh 0.285, Shh pathway inh 5.8, MITF inh -8.0 and PD-1 reversal -2.9.
For Cc1ccccc1-c1nnc(SCC(=O)Nc2ccc(S(N)(=O)=O)cc2)n1C the results were MITF inh -12.7 and PD-1 reversal 2.0.
Screening C[C@H]1CN([C@@H](C)CO)C(=O)Cc2cc(NC(=O)CCC(F)(F)F)ccc2O[C@H]1CN(C)C(=O)NC1CCCCC1 returned YB-1 expr inh -0.429, Shh pathway inh -30.3, MITF inh -8.0 and PD-1 reversal -0.5.
Screening C[C@@H]1CCCCO[C@@H](CN(C)C(=O)Cc2ccccc2)[C@@H](C)CN([C@H](C)CO)C(=O)c2cc(NC(=O)CCC(F)(F)F)ccc2O1 returned YB-1 expr inh 0.22, MITF inh 3.2 and PD-1 reversal -0.5.
For COc1ccc(CN2C(=O)C(O)(CC(=O)c3cccs3)c3ccccc32)cc1OC (stereo unspecified) the results were MITF inh 4.6 and PD-1 reversal 0.3.
Cc1[nH]c2ccccc2c1C(=O)CSc1nc2ccccc2o1 was read as MITF inh -1.5 and PD-1 reversal -6.8.
`C[C@@H]1CN([C@H](C)CO)C(=O)c2cc(NC(=O)Cc3cn(C)c4ccccc34)ccc2O[C@@H]1CN(C)Cc1ccncc1` gave YB-1 expr inh 0.0432, MITF inh -1.3 and PD-1 reversal -1.1.
Cc1noc(C)c1NC(=O)N(C)C[C@H]1Oc2ccc(NS(=O)(=O)c3cccs3)cc2CC(=O)N([C@H](C)CO)C[C@H]1C was read as YB-1 expr inh 0.204, Shh pathway inh -17.4 and MITF inh -10.3.
`C[C@@H]1CN([C@@H](C)CO)C(=O)c2cccc(NC(=O)NC3CCCCC3)c2O[C@@H]1CN(C)C(=O)NC1CCCCC1` gave YB-1 expr inh -0.0201, Shh pathway inh -18.8, MITF inh 3.5 and PD-1 reversal -0.5.
For Cc1ccc(-n2c(SCC(=O)Nc3ccccc3-c3ccccc3)nc3ccccc3c2=O)cc1 the results were MITF inh 9.9 and PD-1 reversal -0.6.
Screening C[C@H]1CN([C@@H](C)CO)C(=O)c2cc(NC(=O)Nc3ccc4c(c3)OCO4)ccc2O[C@@H]1CN(C)C(=O)Nc1cccc2ccccc12 returned YB-1 expr inh -0.0116, Shh pathway inh -25.3, MITF inh 3.1 and PD-1 reversal 0.4.
COc1ccc(S(=O)(=O)N(C)C[C@H]2OCCCC[C@@H](C)Oc3ccc(NC(=O)CCCCCC(=O)Nc4ccccc4N)cc3C(=O)N([C@H](C)CO)C[C@@H]2C)cc1 was read as YB-1 expr inh -0.272, MITF inh 4.2 and PD-1 reversal 1.1.
Screening C[C@H](CO)N1C[C@H](C)[C@@H](CN(C)Cc2ccc3c(c2)OCO3)Oc2ccc(NS(=O)(=O)c3cn(C)cn3)cc2C1=O returned YB-1 expr inh -0.0195, Shh pathway inh -32.3, MITF inh -1.3 and PD-1 reversal 0.7.
`Cc1ccc(S(=O)(=O)N(C)C[C@@H]2Oc3ccc(NC(=O)CCC(F)(F)F)cc3C(=O)N([C@H](C)CO)C[C@H]2C)cc1` gave YB-1 expr inh 0.262, Shh pathway inh 10.4, MITF inh -6.4 and PD-1 reversal -1.7.
For COc1ccc(CN(C)C[C@@H]2Oc3c(NC(=O)Nc4ccc5c(c4)OCO5)cccc3C(=O)N([C@H](C)CO)C[C@H]2C)cc1 the results were YB-1 expr inh -0.254, Shh pathway inh 20.3, MITF inh 14.1 and PD-1 reversal -3.4.
Cc1ccc2ccc(C(Nc3ccccn3)c3ccc(Cl)c(Cl)c3)c(O)c2n1 (stereo unspecified) was read as MITF inh 69.9 and PD-1 reversal -13.6.
CC(=O)N(C)c1ccc(NC(=O)COc2ccc([N+](=O)[O-])cc2)cc1 was read as MITF inh -26.6 and PD-1 reversal -1.5.
Screening O=C(CSc1nnc(-c2ccco2)n1-c1ccccc1)Nc1ccnc2ccccc12 returned MITF inh 22.4 and PD-1 reversal -5.3.
COC(=O)c1ccccc1NC(=O)CSc1n[nH]c(-c2ccccc2)n1 was read as MITF inh 30.8 and PD-1 reversal 2.1.
Screening Cc1cccc(CN2CCN(C(c3ccccc3)c3ccc(Cl)cc3)CC2)c1 (stereo unspecified) returned YB-1 expr inh 0.408, Shh pathway inh 6.1 and MITF inh -17.2.
Screening Cc1ccc(S(=O)(=O)Nc2ccc3c(c2)CC(=O)N([C@H](C)CO)C[C@@H](C)[C@H](CN(C)S(=O)(=O)c2c(C)noc2C)O3)cc1 returned YB-1 expr inh 0.497, Shh pathway inh -23.9, MITF inh -0.8 and PD-1 reversal 0.8.
`C[C@@H]1CN([C@@H](C)CO)C(=O)c2cc(NC(=O)C3CCCCC3)ccc2O[C@H]1CN(C)C(=O)NC1CCCCC1` gave YB-1 expr inh 0.00993, MITF inh 4.8 and PD-1 reversal 1.3.
C[C@H](CO)N1C[C@H](C)[C@H](CN(C)Cc2ccncc2)Oc2ccc(NS(=O)(=O)c3ccc(Cl)cc3)cc2C1=O was read as YB-1 expr inh -0.145, Shh pathway inh inconclusive, MITF inh -0.6 and PD-1 reversal -0.9.
Screening C=CC1(C)C=C2CCC3C(C)(C)C(O[C@@H]4O[C@@H](CO)[C@H](O)[C@H]4O)CCC3(C)C2CC1O[C@@H]1O[C@H](C)[C@@H](OC)[C@H](O)[C@H]1O (stereo partly specified) returned YB-1 expr inh -0.409, Shh pathway inh -27.2, MITF inh -15.4 and PD-1 reversal 0.5.
CC(C)(C)c1ccc(OCC(=O)Nc2ccccc2C(N)=O)c(Br)c1 was read as MITF inh -89.5 and PD-1 reversal -1.4.

Three entries out of the list, sorted by formula weight, lowest first.
CC(=O)N(C)c1ccc(NC(=O)COc2ccc([N+](=O)[O-])cc2)cc1 was read as MITF inh -26.6 and PD-1 reversal -1.5.
Screening Cc1cccc(CN2CCN(C(c3ccccc3)c3ccc(Cl)cc3)CC2)c1 (stereo unspecified) returned YB-1 expr inh 0.408, Shh pathway inh 6.1 and MITF inh -17.2.
COc1ccc(S(=O)(=O)N(C)C[C@H]2OCCCC[C@@H](C)Oc3ccc(NC(=O)CCCCCC(=O)Nc4ccccc4N)cc3C(=O)N([C@H](C)CO)C[C@@H]2C)cc1 was read as YB-1 expr inh -0.272, MITF inh 4.2 and PD-1 reversal 1.1.
